RN4220 kill: S. aureus RN4220 growth inhibition | inhibition, % (concentration not given with the values) | OD600, 16 h | 0.33% of 330,000 active;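 active means z-score of -3 or lower and OD600 up to 0.18 on both plates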;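 further: plate controls were untreated cells for no effect and reference antibiotic for full effect; stock transfer was 100 nL into about 80 µL; one replicate is shown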
Mtb hypoxia inh: Mtb hypoxia fluorescent reporter inhibition | AID 1159583 | M. tuberculosis hypoxia-regulated fluorescent reporter, fluorescence | fluorescence inhibition, % (no concentration beside the values) | 0.1% of 300,000 active;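 active means 35 to 45% if threefold the growth effect, above 45% if 1.5-fold the growth effect; inactive means the rest, general growth blockers included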;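 further: wells of about 50 µL received 100 nL stock; 0% = vehicle wells and 100% = reference inhibitor wells; whole bacteria with a GFP reporter of the hypoxia response; strong numbers were not always called active; many hits fall short of the cut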
Autofluor counter: compound fluorescence in toxin protease inhibitor counterscreen | 3.1% of 360,000 active | compound autofluorescence counterscreen, microsphere flow cytometry; hits give high values | AID 624483 | fluorescence intensity (test concentration not listed);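 active means at least 3 SD above the mean of all compounds, about 16000 in these data; inconclusive means too few beads counted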;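 further: 100 nL of 1 mM stock went into each well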
ugtP null kill: compounds lethal to S. aureus RN4220 ugtP deletion mutant. OD600 growth, 16 h; some inactives read as strong as hits. growth inhibition, % (test concentration not listed). 0.54% of 330,000 active. AID 1259309;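 active means z-score under -3 and OD600 up to 0.15 on both plates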;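 further: plate controls were untreated wells for no effect and antibiotic for full effect; wells of about 80 µL received 100 nL stock; the first replicate is given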
PrP UTR inh: suppresses PrP 5' UTR mRNA reporter expression. cell-based PrP 5' UTR mRNA reporter, plate reader. inhibition, % (test concentration not listed). 0.35% of 340,000 active. AID 488862;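 active means every replicate at 50% or more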;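 further: 0 = median of the neutral control wells; tested in H4 reporter cells; numbers are from one replicate; inactives centre near -14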
BJeLR lethal: BJeLR cell viability loss; BJeLR (HRASV12) viability, CellTiter-Glo ATP luminescence, 48 h; reference of the scale not given here; 0.17% of 300,000 active; AID 1554; inhibition, % (no concentration beside the values);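 active means replicate mean above 50%; inconclusive means above 50% but judged a plate artefact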;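 further: 50 nL library stock added to about 25 µL; numbers are from one replicate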
Mtb hypoxia inh growth: further read-out of Mtb hypoxia inh, marked with its call; growth inhibition, %; measured here: M. tuberculosis growth (absorbance);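 0% = vehicle and 100% = reference antibiotic; read after six days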
* = called active by the depositor; ? = inconclusive; . = not tested or not shown; & = joins results of further samples.

SMILES	RN4220 kill	Mtb hypoxia inh	Mtb hypoxia inh growth	Autofluor counter	ugtP null kill	PrP UTR inh	BJeLR lethal
CC(=O)Nc1ccc2c(c1)OCCOCCOc1cc(NC(C)=O)ccc1OCCOCCOCCO2	1.9	5	7	.	38	.	-2
O=C(CSc1nc(C2CC2)nc2c1cnn2-c1ccccc1)Nc1c[nH]c(=O)[nH]c1=O	4.1	2	2	3469	1	-1	-5
COc1ccc(S(=O)(=O)NNC(=O)c2cc3c4ccccc4n(C)c3s2)cc1	0.9	0	4	7002	6	-5	1
CCCCN1C(N)=NC[C@@H]1C(C)O (some centres not stated)	-5.3	6	0	3942	4	-30	0
COc1ccc(NC(=O)C23CC4CC(C2)CC(n2cnc(Br)n2)(C4)C3)c(C)c1	3.2	8	6	7828	-1	1	-7
Cc1ccc(NS(=O)(=O)c2cc(NC(=O)c3cc4c(s3)CCCC4)ccc2C)c(C)c1	-4.4	-1	8	11781	-22	-2	-7
N#C/C(=C\c1ccc(N2CCOCC2)o1)C(=O)N1CCOCC1	.	.	.	3194	.	-15	4
COc1ccc(S(=O)(=O)N2CCC(C(=O)NCC3CCCO3)CC2)cc1 (configuration not stated)	-0.1	-2	13	20959*	0	-14	-8
O=C(CCl)N1c2ccccc2OCC1c1ccccc1 (configuration not stated)	40	.	.	2059	95*	-5	2
CCOC(=O)CC1COCCN1Cc1cn[nH]c1-c1cc(OC)c(OC)c(OC)c1 (configuration not stated)	2.9	-2	7	4724	5	-22	-1
COc1ccc(S(=O)(=O)N2CCc3ccccc32)cc1C(=O)OCC(=O)c1c(N)n(C)c(=O)n(C)c1=O	-1.8	-1	-7	4485	5	-11	-6
CC(=O)NCCn1c(SCC(=O)NCC2CCCO2)nc2ccccc2c1=O (configuration not stated)	0.6	-3	5	22103*	2	6	4
CN(C)CCCNC(=O)c1cc(S(=O)(=O)N2CCOCC2)ccc1F	2.8	17	7	3256	3	-29	2
COC(=O)c1ccc(COc2ccccc2C=NNS(=O)(=O)c2ccc(C)cc2)cc1	2.0	2	1	.	-2	.	.
COC(=O)CCCCCC(CCC(=O)OC)NC(C)=O (configuration not stated)	0.4	3	2	9427	1	-20	5
Cc1ccc(S(=O)(=O)NCC(=O)OCC(=O)Nc2ccc3c(c2)OCCO3)cc1	1.6	8	3	3434	6	-17	.
CCCNC(=O)c1cc(Cl)c(NC(=O)C2=C(C)OCCS2)cc1OC	1.3	3	-1	3117	-6	-28	-2
Cc1ccc(C(CC(=O)O)Nc2nc(N3CCOCC3)nc(N3CCOCC3)n2)cc1 (configuration not stated)	2.4	2	-1	2025	3	-4	3
COC(=O)C1C[C@@]2(O)C(O)C(O)C(O)CC2N1Cc1cc(OC)cc(OC)c1 (some centres not stated)	5.9&3.4	4&7	-2&4	.	0&1	.	.
Cn1c(=O)c2c(ncn2CC(=O)NN=C/C(Br)=C/c2ccccc2)n(C)c1=O	-4.4	-7	-4	.	-15	.	.
COc1ccccc1-c1nnc(SC(C)C(=O)N2CCOCC2)o1 (configuration not stated)	1.7	0	1	?	6	-2	-10
COCCC1CCCCN1C(=O)c1ccc(OC)c(OC2CCN(C(C)=O)CC2)c1 (configuration not stated)	2.2	6	-2	5067	-2	-9	4
Cc1ccc([N+](=O)[O-])cc1S(=O)(=O)N1CCN(C)CC1	5.7	2	10	5202	-3	-19	-8
COc1ccc(C(=O)O)cc1S(=O)(=O)N1CCSCC1	2.5	-1	2	3527	2	-15	7
COc1ccc(Nc2n[nH]c(C)c2[N+](=O)[O-])cc1	1.3	6	8	2539	-2	-66	-5
Cc1ccc(S(=O)(=O)Nc2ccc3c(c2)c2c(n3S(=O)(=O)c3ccc(C)cc3)CCCC2=O)cc1	0.0	3	-1	11157	-12	-33	15
CC(=O)Nc1cc(S(=O)(=O)Nc2ccc(C)cc2)c(C)cc1C	0.7	.	.	4621	-3	-2	-5
COc1ccc(OCC(=O)NNC(=O)c2cccc(O)c2)cc1	2.5	-7	-5	1944	3	-7	2
Cc1cc(=O)[nH]c(-n2[nH]c3c(c2=O)CCCC3)n1	13	4	7	4638	-6	-12	7
Cc1cc(N2CCN(c3ccccc3)CC2)n2cc(-c3ccccc3)nc2n1	12	7	0	9275	-9	-14	-1
COc1cccc(OC)c1NC(=O)CN1CCC(NC(=O)c2cccc(F)c2)CC1	0.5	.	.	2499	-5	-10	-1
Cc1ccc(Cl)cc1NC(=O)N[C@@H](C)C(=O)O	.	.	.	3162	.	-25	12
COc1ccc(CNC(=O)COC(=O)c2c(-c3c(F)cccc3Cl)noc2C)cc1OC	-1.8	7	4	11757	-10	-28	0
O=C1CCc2cc(S(=O)(=O)NC(Cc3ccccc3)C(=O)NCCC3=CCCCC3)ccc2N1 (configuration not stated)	1.3	.	.	5232	5	-17	-1
CC1CCCC(NC(=O)C2CCCN2S(=O)(=O)c2cccc3nsnc23)C1C (configuration not stated)	2.5	6	3	5414	10	-25	-5
O=c1[nH]c2ccc(Cl)cc2[nH]1	4.0	13	7	2960	9	-23	.
NC(=O)[C@H]1CC2(CC(c3cccc(NC(=O)COc4ccc(Cl)cc4)c3)=NO2)CN1C(=O)c1ccccc1C(=O)c1ccccc1 (some centres not stated)	.	.	.	3750	.	9	-8
CCCCOc1ccc(C(=O)Nc2ccc(N3CCN(C(=O)C(C)C)CC3)cc2)cc1	-0.1	.	.	3698	8	-4	9
CS(=O)(=O)N(Cc1ccc(C(=O)NCCSc2ccccn2)cc1)c1ccccc1	3.3	3	-2	2308	18	3	4
O=C(NCCCn1ccnc1)c1cccc(S(=O)(=O)N2CCCCCC2)c1	7.1	9	8	3229	5	-15	1
O=C(c1cc(-c2cccc(Cl)c2)on1)N1CCCCCC1	6.7	11	5	4476	9	-48	-19
Cc1ccc(NC(=O)C(=O)NCCN2CCN(S(=O)(=O)c3ccccc3)CC2)cc1C	1.2	4	4	4598	-1	-8	-4
Cc1ccc(N(Cc2ccc(C(=O)NN=C3CCN(C)CC3)cc2)S(C)(=O)=O)cc1C	4.4	2	13	1969	1	-10	-10
N#Cc1ccc2[nH]cc(CCO)c2c1	3.0	6	-1	3811	-1	-14	-8
CCCOC(=O)c1c(-c2ccccc2)nc(CC)c(C(=O)SCC)c1CCC	-1.7	9	2	4808	95*	7	.
CNC(=S)N(CCc1c(C)[nH]c2ccc(F)cc12)Cc1ccco1	26	3	-3	3552	-13	7	-7
CCOC(=O)N1CCN(C(=O)CS(=O)Cc2nc(-c3ccc(OC)c(OC)c3)oc2C)CC1 (configuration not stated)	3.7	1	-8	4336	11	-13	-1
C[C@H](CO)N1C[C@H](C)[C@@H](CN(C)S(=O)(=O)c2ccc(Cl)cc2)Oc2ccc(NS(=O)(=O)c3ccccc3)cc2CC1=O	-5.7	-5	6	3743	-9	1	.
CCCCOC(=O)c1[nH]c(C)c(C(=O)OC)c1C	-3.2	2	6	9097	-17	-78	-16
CCOc1ccc(S(=O)(=O)NCC2CCCO2)c2cccnc12 (configuration not stated)	-0.9	.	.	2834	7	-10	4

(listing goes on)
SMILES	RN4220 kill	Mtb hypoxia inh	Mtb hypoxia inh growth	Autofluor counter	ugtP null kill	PrP UTR inh	BJeLR lethal
NCc1oc(-c2ccccc2)cc1C(=O)O	5.3	3	13	5304	-3	-13	3
O=C(NCC(c1cccs1)N1CCOCC1)c1cccc([N+](=O)[O-])c1 (configuration not stated)	2.4	-2	-6	2618	2	-6	-6
Cc1cc(OC(=O)c2cccs2)ccc1C(C)C	-1.4	.	.	2276	24	-25	-2
CCOC(=O)c1cc(-c2ccccc2)sc1NC(=O)c1ccc(OC)c(OC)c1	8.1	3	-4	6387	-15	3	1
CC(C)N(Cc1nnc(-c2ccccc2Br)o1)C(=O)c1cc(Cl)nc2ccccc12	3.7	2	7	4441	1	-7	.
COc1ccccc1N1CCN(C(=O)c2cc3c(s2)-c2ccccc2OC3)CC1	-1.9	10	7	4161	-17	-23	10
COc1ccc(O)c(C=c2sc3nc4cc(C)c(C)cc4n3c2=O)c1	5.8	-75	-5	.	8	.	.
O=C1c2ccccc2CCC12N=NCC2c1ccc(Cl)cc1 (configuration not stated)	-3.4	4	3	8590	13	-18	3
CCOC=Nc1c(C#N)c(CC#N)nn1-c1ccccc1	4.0	1	2	.	1	.	.
Cc1nc(N2CCN(C(=O)COc3ccccc3)CC2)c2c(C)c(C)sc2n1	0.4	1	5	3420	-4	-7	3
CC(C(=O)CC(=O)OC(C)(C)C)C(O)c1c(F)cccc1Cl (configuration not stated)	7.0	5	10	.	4	.	.
CCOC(=O)CSc1nc2c(sc3ccccc32)c(=O)n1CCCN1CCOCC1	3.7	7	10	4294	5	-14	5
CC(=O)c1cccc(NC(=O)c2csc3c2CCCCC3)c1	-1.8	5	4	2653	10	-21	-4
O=C(C1CC=CC2CCN(C3CC3)C(=O)C21)N1CCN(c2ccccc2)CC1 (configuration not stated)	2.0	-12	-11	.	-9	.	.
COc1ccccc1/C=C/C(=O)NCC(=O)n1nc(C)cc1C	2.5	11	4	4900	7	-9	-4
O=C1CC(C(=O)O)C(c2ccccc2)c2ccccc21 (configuration not stated)	2.1	15	6	2820	2	-7	.
Nc1ccc(C(=O)Oc2ccc([N+](=O)[O-])cc2)cc1	.	.	.	4707	.	-47	-10
O=C(CNC(=O)c1ccco1)NN=Cc1ccc(C(=O)O)cc1	3.7	13	4	.	5	.	.
Cc1nnc(SCC(=O)Nc2ncc3c(n2)CCCC3=O)s1	3.0	.	.	2673	-3	-21	-2
C=C(C)Cn1c(SCC(=O)N/N=C/c2cccc(O)c2)nc2ccccc2c1=O	.	.	.	2024	.	-3	-11
COc1ccc2c(c1)c1c(n2C(C)=O)C(OC(C)=O)=NCC1	4.3	4	6	4330	-1	-15	14
COc1ccccc1NS(=O)(=O)c1cc(NC(=O)COc2ccccc2F)ccc1N1CCOCC1	-0.7	-8	0	3496	-17	-21	.
CC(C)=CC(=O)Nc1ccccc1Br	5.3	9	7	17220*	2	-32	0
Cn1c(CCN2CCCCC2)nc2cc(NS(=O)(=O)c3ccc(F)cc3)ccc21	1.5	-1	-3	3701	9	-25	-1
S=C(NCCc1ccccc1)NCc1cccs1	-3.2	-4	9	2643	-4	-50	-5
O=C(Nc1nc(-c2ccc(Cl)cc2)cs1)NC1CCCCC1	6.2	6	11	2082	-8	-1	15

Among those listed so far, these have two or more sulfur atoms:
SMILES	RN4220 kill	Mtb hypoxia inh	Mtb hypoxia inh growth	Autofluor counter	ugtP null kill	PrP UTR inh	BJeLR lethal
COc1ccc(S(=O)(=O)NNC(=O)c2cc3c4ccccc4n(C)c3s2)cc1	0.9	0	4	7002	6	-5	1
Cc1ccc(NS(=O)(=O)c2cc(NC(=O)c3cc4c(s3)CCCC4)ccc2C)c(C)c1	-4.4	-1	8	11781	-22	-2	-7
COc1ccc(C(=O)O)cc1S(=O)(=O)N1CCSCC1	2.5	-1	2	3527	2	-15	7
Cc1ccc(S(=O)(=O)Nc2ccc3c(c2)c2c(n3S(=O)(=O)c3ccc(C)cc3)CCCC2=O)cc1	0.0	3	-1	11157	-12	-33	15
CC1CCCC(NC(=O)C2CCCN2S(=O)(=O)c2cccc3nsnc23)C1C (configuration not stated)	2.5	6	3	5414	10	-25	-5
CS(=O)(=O)N(Cc1ccc(C(=O)NCCSc2ccccn2)cc1)c1ccccc1	3.3	3	-2	2308	18	3	4
C[C@H](CO)N1C[C@H](C)[C@@H](CN(C)S(=O)(=O)c2ccc(Cl)cc2)Oc2ccc(NS(=O)(=O)c3ccccc3)cc2CC1=O	-5.7	-5	6	3743	-9	1	.
CCOC(=O)CSc1nc2c(sc3ccccc32)c(=O)n1CCCN1CCOCC1	3.7	7	10	4294	5	-14	5
Cc1nnc(SCC(=O)Nc2ncc3c(n2)CCCC3=O)s1	3.0	.	.	2673	-3	-21	-2
S=C(NCCc1ccccc1)NCc1cccs1	-3.2	-4	9	2643	-4	-50	-5
